Screens: PubChem BioAssay, National Center for Advancing Translational Sciences (NCATS)
DT40 TDP1 no CPT = qHTS for Inhibitors of human tyrosyl-DNA phosphodiesterase 1 (TDP1): qHTS in cells in absence of CPT | DT40 Tdp1-/- hTDP1 cells, no CPT, ATP luminescence, 48 h | 15% of 420,000 active | Potency, µM (highest dose often 46.2 µM), without a hit: at the top dose activity change, negative = growth inhibition, usual class: inhibitors | AID 686978, 2013; further: nearly all actives have a fitted effect of over 55% in size
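DT40 Tdp1-/-;hTDP1 cells, no CPT (DMSO vehicle only), 400 cells/well; compounds pin-transferred; ≥48 hr, 37 °C; CellTiter-Glo 30 min RT dark, luminescence read.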
TDP1 inh = qHTS Assay for Inhibitors of Tyrosyl-DNA Phosphodiesterase (TDP1); recombinant TDP1, AlphaScreen DNA substrate cleavage; Potency, µM (top dose mostly 130 µM), for inactives: top-dose activity change, negative = inhibition, most hits filed as inhibitors; 0.28% of 350,000 active; AID 485290, 2010; further: nearly all actives have a fitted effect of over 40% in size
Target sequence (Q9NUW8 whole entry, looked up): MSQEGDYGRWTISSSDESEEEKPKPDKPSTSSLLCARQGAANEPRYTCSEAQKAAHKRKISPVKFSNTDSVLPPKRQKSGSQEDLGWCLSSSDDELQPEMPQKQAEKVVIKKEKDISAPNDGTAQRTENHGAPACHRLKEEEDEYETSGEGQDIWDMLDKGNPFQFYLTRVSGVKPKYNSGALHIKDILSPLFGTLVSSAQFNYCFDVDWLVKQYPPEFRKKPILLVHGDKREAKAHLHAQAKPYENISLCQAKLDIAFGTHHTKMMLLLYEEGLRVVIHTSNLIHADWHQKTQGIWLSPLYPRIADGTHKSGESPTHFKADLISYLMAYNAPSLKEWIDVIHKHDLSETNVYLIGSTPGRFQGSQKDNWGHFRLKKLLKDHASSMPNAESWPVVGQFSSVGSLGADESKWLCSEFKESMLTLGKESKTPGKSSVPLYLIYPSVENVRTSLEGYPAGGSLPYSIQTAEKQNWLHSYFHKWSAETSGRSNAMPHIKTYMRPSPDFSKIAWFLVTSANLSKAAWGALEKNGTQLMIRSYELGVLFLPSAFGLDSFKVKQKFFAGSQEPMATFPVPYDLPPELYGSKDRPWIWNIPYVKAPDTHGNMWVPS
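Here, a 5' biotin and 3' phosphotyrosine-FITC DNA oligonucleotide reports Tdp1 activity: intact substrate bridges AlphaScreen beads, while cleavage leaves a 3' phosphate and drops signal. All incubations at room temperature.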
* hit, by the source's call; ? = inconclusive; / = no result given; [ ] = remark or other dose. The call rests on the fitted dose curve; in most records, active means well fitted curve in the direction sought with a large enough effect; inconclusive means small, poorly fitted or top-dose-only effect, or another doubt; inactive means no such curve, though single readings can be large; an effect the other way counts as inactive or inconclusive. On the % scale 0 is the no-effect control and ±100 the full control effect; potency means the concentration at half of the fitted maximal effect. An excerpt, and most or all hits are left out here.

SMILES	DT40 TDP1 no CPT	TDP1 inh
COc1cc(NC(=O)c2sc3ncn(CC(=O)N4CCCC(C)C4)c(=O)c3c2C)cc(OC)c1OC (stereo unspecified)	-24%	8%
CCC(c1nnc(SCC(=O)N2CCOCC2)n1C1CCCCC1)N(C)C (stereo unspecified)	3%	5%
CCN(C(=O)COc1ncnc2scc(-c3ccc(F)cc3)c12)C1CCS(=O)(=O)C1 (stereo unspecified)	-18%	2%
Cc1ccc(OCC(=O)N2CCc3ccccc32)c([N+](=O)[O-])n1	-3%	3%
Cc1cc(C)nc(NC(=O)CSc2nc3cc(Cl)ccc3s2)n1	-22%	-14%
CCN(CCO)Cc1csc2c(Br)cccc12	?	0%
CCc1nonc1NC(=O)COc1ccc(Cl)c(C)c1	9%	-3%
COc1cccc(C2CC(c3ccc(C)cc3)n3nc(N)nc3N2)c1 (stereo unspecified)	-17%	3%
Cc1ccc(/C=C2\CCOC2=O)cc1	-13%	9%
Cc1c(OC(C)C(=O)NC(Cc2c[nH]c3ccc(O)cc23)C(=O)O)ccc2c1oc(=O)c1ccccc12 (stereo unspecified)	-3%	/
CCOc1ccccc1Nc1nc(N)nc(CSc2nccc(C)n2)n1	-5%	11%
O=c1ncn(-c2ccc(F)cc2)c2ncccc12	1%	-1%
CCOC(=O)Cc1ccc(NC(=O)c2cccc([N+](=O)[O-])c2)cc1	?	-2%
Cc1c(Cl)cccc1NC(=O)CCCN1C(=O)c2cccnc2C1=O	-3%	-1%
CC(C)C(NC(=O)c1ccccc1)C(=O)NCC(c1ccccc1)N(C)C (stereo unspecified)	6%	-5%
Cc1ccc(NC(=S)NCC2CCCO2)cc1C (stereo unspecified)	-6%	5%
Cc1cc(NC(=O)COC(=O)C2COc3ccccc3O2)no1 (stereo unspecified)	-3%	1%
COc1cccc(C(=O)Cn2c(NCCCO)nc3ccccc32)c1	-21%	/
C=CCNC(=S)N1CCc2[nH]c3ccccc3c2C1	?	8%
CCOC(=O)Cn1c(CN2CCN(C(=O)c3ccco3)CC2)nc2c1c(=O)n(C)c(=O)n2C	13%	5%
COc1cc([N+](=O)[O-])ccc1NC(=O)CSc1nnc(C)c(C)n1	?	4%
COC(=O)c1sc2ncn(-n3c(C)ccc3C)c(=O)c2c1C	-11%	2%
CC(=O)N1CCC(N(C(=O)Nc2ccc(Cl)cc2)C(C)C)CC1	?	0%
COCCCNCC(=O)Nc1ccc(OC(F)(F)F)cc1	-6%	5%
CC1CCN(S(=O)(=O)CCNC(=O)c2ccccc2)CC1	1%	0%[0.505 µM]
O=S(=O)(NCc1ccc2c(c1)OCO2)c1cccc2cccnc12	-24%	2%
CCc1c(C#N)sc(C(N)=O)c1CC	?	4%
CC(C)OC(=O)c1c(NC(=O)c2cccs2)sc2c1CCCC2	-21%	4%
COc1ccc(C2CC(=O)c3c(C)nc(N4CCN(c5ccccc5)CC4)nc3C2)cc1 (stereo unspecified)	-23%	8%
Cc1ccccc1CNC(=O)c1ccccc1NS(C)(=O)=O	?	-5%
O=C(Cc1ccccc1)N[C@@H](Cc1ccccc1)C(=O)O	5%	3%
CC1CCCC(C(=O)O)N1C(=O)CCSC(=O)c1ccccc1 (stereo unspecified)	-8%	0%
O=C(CCCN1C(=O)c2ccccc2C1=O)Nc1nncs1	10%	0%
Cc1ccc(C(O)CN2C3=NCCCN3c3ccccc32)cc1 (stereo unspecified)	?	2%
Cc1ccc2cc(COC(=O)c3ccncc3)c(=O)[nH]c2c1	-8%	0%
CC1CCN(C(=O)C2Cc3ccccc3CN2S(=O)(=O)c2ccc(F)cc2)CC1 (stereo unspecified)	-19%	5%
Cc1nc(NC(=O)CSc2nnc(N)s2)c(Cl)cc1Cl	-19%	3%
CCCCNCCOCCOc1ccc(C)cc1[N+](=O)[O-]	-29%	-4%
CCOc1ccc(C2C(C(=O)C3CC3)N3C=C(C#N)C=CC3C2(C#N)C#N)cc1 (stereo unspecified)	/	9%
Cc1c(Cl)cccc1NC(=O)NCc1ccncc1	12%	0%
CCN(C(=O)COC(=O)C1CCN(S(=O)(=O)c2ccc3c(c2)OCCO3)CC1)C1CCS(=O)(=O)C1 (stereo unspecified)	0%	-1%
CCCn1c(=S)[nH]c2cc(C(=O)N3CCc4ccccc4C3)ccc2c1=O	-11%	3%
CCSc1nc2ccccc2n1Cc1nc(N)nc(N(C)C)n1	-11%	-4%
Cc1ccc(C(=O)CNc2ccc(Br)cc2)cc1	3%	-3%
O=C(CCN1C(=O)C2C3C=CC(C4CC34)C2C1=O)Nc1ccc(Cl)cc1O (stereo unspecified)	?	2%
OCCSc1nc(-c2ccccc2)nc2c1CCC2	?	-1%
Cc1ccc(/C=N/n2c(C3CCCCC3)n[nH]c2=S)o1	?	5%
N#Cc1ccc(C(c2nnnn2CCc2ccccc2)N2CCCCCC2)cc1 (stereo unspecified)	?	0%
O=C(NCc1ccccc1)NC1(C(=O)N2CCN(c3ncccn3)CC2)CCCCC1	-24%	-2%
CC(=O)N1CCN(C(=O)COc2ccc(Br)cc2)CC1	-18%	2%

More records:
SMILES	DT40 TDP1 no CPT	TDP1 inh
CCOc1ccc(C(=O)Nc2ccccc2OC(F)F)cc1	-14%	5%
COc1ccccc1OCCC(=O)OCC(=O)NC(C)c1ccccc1 (stereo unspecified)	14%	0%
O=c1cc[nH]c2cc(Cl)ccc12	2%	3%
O=C(NCC1CCCO1)c1ccc2c(c1)OCO2 (stereo unspecified)	0%	0%
COc1ccc(CCNC(=O)C2CCN(S(=O)(=O)N3CCC4(CC3)OCCO4)CC2)cc1OC	9%	0%
CCN(CC)c1ccc(/C=N/N2CCN(Cc3ccccc3Cl)CC2)c(O)c1	-11%	-1%
OC[C@H]1NC[C@H](O)[C@@H](O)[C@H]1O	-4%	-7%[56.1 µM]
CCc1ccc(N(CC(=O)NC2CCCCC2)C(=O)CNC(=O)c2ccco2)cc1	-23%	14%
CC(C)(C)NC(=O)COC(=O)Cc1ccc(Cl)cc1	-2%	7%
Nc1nc(OCC(F)(F)F)cc(Oc2ccccc2F)n1	-12%	2%
COc1ccc(NC(=O)N(Cc2ccc(C)cc2)Cc2cccnc2)c(OC)c1	?	0%
CCOC(=O)c1c(N)n[nH]c1-c1ccccc1	-19%	5%
COc1ccc(-n2ncc3c2CC(C)(C)CC3NC(=O)C2=CC(=O)CC(C)(C)O2)cc1 (stereo unspecified)	-2%	3%
CS(=O)(=O)N(CC(=O)NCc1ccco1)c1ccc(Cl)cc1Cl	1%	/
COc1ccc(OCc2cc(C(=O)NC(C)c3csc(C)n3)no2)c(Cl)c1 (stereo unspecified)	?	1%
CN(C)N1C(N)=C(C#N)C(c2cccc(Cl)c2)C2=C1CCCC2=O (stereo unspecified)	0%	/
CCc1ccc(C(=O)Nc2nnn(CC)n2)cc1	-11%	-1%
O=C(O)/C=C/C(=O)NNc1ncnc2ccccc12	3%	/
CCOc1ccc(C(=O)Nc2cccc([N+](=O)[O-])c2)cc1Br	-5%	5%
CS(=O)(=O)N(CC(=O)NCc1ccc2c(c1)OCO2)C1CCCCC1	-9%	5%
COc1ccc(C(=O)CSc2nnc(COc3ccc(C#N)cc3)n2-c2ccccc2)cc1	-15%	5%
CCCCNC(=O)CC1N=C2c3ccccc3N=C(SCC(=O)Nc3ccccc3OC)N2C1=O (stereo unspecified)	-10%	4%
Brc1[nH]nc2ccccc12	-2%	0%
Cc1ccc(C)c(Cn2c(=O)c3c(nc4n3CCN4Cc3ccco3)n(C)c2=O)c1	?	5%
CSc1nc2ccc(S(=O)(=O)N3CCCCC3)cc2s1	-17%	-2%
CCOCCCNC(=S)N1CCN(CC)CC1	22%	/
Cc1ccc2occ(/C=N/O)c(=O)c2c1	-23%	-1%
CCCCC(=O)Nc1cc(OC)c(NC(=O)C2CCCCC2)cc1OC	-15%	5%
CCc1ccc(N(C(=O)CNC(=O)c2ccco2)C(C(=O)NC2CCCC2)c2ccncc2)cc1 (stereo unspecified)	-20%	11%
O=C1N(c2cccc(Cl)c2)C(c2ccccc2)N2CCCN12 (stereo unspecified)	-24%	3%
CCOc1ccc(CN2CCNC(=O)C2CC(=O)N(C)CC2CCOCC2)cc1 (stereo unspecified)	3%	3%[56.1 µM]
O=C(CCCN1C(=O)CCC1=O)Nc1cccc(C(F)(F)F)c1	2%	7%
O=C(Cc1ccccc1)Nc1ccc(F)cc1	2%	1%
CCN1CCN(C(=S)NCc2ccc(C)cc2)CC1	-4%	4%
O=C(O)CC1CCS(=O)(=O)C1 (stereo unspecified)	-2%	-1%
CN1CCN(c2ccccc2/C=N/NC(=O)c2cccnc2)CC1	2%	1%
CC(=C\C(=O)O)/C(=C/c1ccccc1)C(=O)O	-8%	3%
COC(=O)c1[nH]c2cccc(Cl)c2c1NC(=O)CN1CCCCC1C (stereo unspecified)	-26%	-4%
O=C(Nc1cccc(O)c1)c1cc(S(=O)(=O)N2CCCC2)ccc1Cl	-26%	5%
O=S(=O)(NCc1cccnc1)c1ccc(Cl)cc1	-29%	/

Reformatted with bars between the fields: 19 of the compounds above
smiles | DT40 TDP1 no CPT | TDP1 inh
COc1ccc(C(=O)CSc2nnc(COc3ccc(C#N)cc3)n2-c2ccccc2)cc1 | -15% | 5%
CCCCNC(=O)CC1N=C2c3ccccc3N=C(SCC(=O)Nc3ccccc3OC)N2C1=O (stereo unspecified) | -10% | 4%
Brc1[nH]nc2ccccc12 | -2% | 0%
Cc1ccc(C)c(Cn2c(=O)c3c(nc4n3CCN4Cc3ccco3)n(C)c2=O)c1 | ? | 5%
CSc1nc2ccc(S(=O)(=O)N3CCCCC3)cc2s1 | -17% | -2%
CCOCCCNC(=S)N1CCN(CC)CC1 | 22% | /
Cc1ccc2occ(/C=N/O)c(=O)c2c1 | -23% | -1%
CCCCC(=O)Nc1cc(OC)c(NC(=O)C2CCCCC2)cc1OC | -15% | 5%
CCc1ccc(N(C(=O)CNC(=O)c2ccco2)C(C(=O)NC2CCCC2)c2ccncc2)cc1 (stereo unspecified) | -20% | 11%
O=C1N(c2cccc(Cl)c2)C(c2ccccc2)N2CCCN12 (stereo unspecified) | -24% | 3%
CCOc1ccc(CN2CCNC(=O)C2CC(=O)N(C)CC2CCOCC2)cc1 (stereo unspecified) | 3% | 3%[56.1 µM]
O=C(CCCN1C(=O)CCC1=O)Nc1cccc(C(F)(F)F)c1 | 2% | 7%
O=C(Cc1ccccc1)Nc1ccc(F)cc1 | 2% | 1%
CCN1CCN(C(=S)NCc2ccc(C)cc2)CC1 | -4% | 4%
O=C(O)CC1CCS(=O)(=O)C1 (stereo unspecified) | -2% | -1%
CN1CCN(c2ccccc2/C=N/NC(=O)c2cccnc2)CC1 | 2% | 1%
CC(=C\C(=O)O)/C(=C/c1ccccc1)C(=O)O | -8% | 3%
COC(=O)c1[nH]c2cccc(Cl)c2c1NC(=O)CN1CCCCC1C (stereo unspecified) | -26% | -4%
O=C(Nc1cccc(O)c1)c1cc(S(=O)(=O)N2CCCC2)ccc1Cl | -26% | 5%

Other records:
SMILES	DT40 TDP1 no CPT	TDP1 inh
CCCn1nc(NS(=O)(=O)c2ccc(F)cc2)c2cc3ccccc3nc21	17%	4%
O=C(COC(=O)c1cc([N+](=O)[O-])ccc1NCc1ccccc1)NC1CCCCC1	-27%	0%
N#Cc1c(NC(=O)CCN2C(=O)c3ccccc3C2=O)oc(-c2ccccc2)c1-c1ccccc1	-10%	0%
CCn1cc(C(=O)N2CCOCC2)c(=O)c2cc(S(=O)(=O)N(C)C3CCCCC3)ccc21	-10%	6%
COC(=O)c1ccc(C2C(C(=O)Nc3ccccc3C)=C(C)Nc3ncnn32)cc1 (stereo unspecified)	-27%	7%
Cc1cc(C(=O)Nc2ccc3ccccc3c2)oc1C	-21%	7%
C/C(CC(O)c1ccc2ccccc2n1)=N/O (stereo unspecified)	-6%	1%
Cc1cccc(NC(=O)/C(C#N)=C/c2cn(CC(=O)NCc3ccco3)c3ccccc23)c1C	?	5%
O=C1c2cccc3cccc(c23)C(=O)N1Cc1ccco1	-18%	0%
CC(C)NC(=O)C(=O)NNC(=O)C12CC3CC(CC(C3)C1)C2	-17%	5%
COc1ccc(/C=C/c2nnc(NC(=O)COc3cccc(C)c3)s2)cc1	?	3%
Cc1cccc(Oc2coc3cc(OC(=O)c4cc5ccccc5oc4=O)ccc3c2=O)c1	-3%	1%
O=c1[nH]c(CSc2nnc(-c3ccncc3)n2Cc2ccco2)nc2ccccc12	-16%	6%
CCC(C)[C@H](NC(=O)NCc1ccc(S(N)(=O)=O)cc1)C(=O)O (stereo partly specified)	4%	8%
c1ccc2c(-c3nnc4n3CCCCC4)c[nH]c2c1	-16%	7%
O=C(Nc1ccc2c(c1)OCCO2)N1CCN(c2ccccc2)CC1	-25%	0%
c1ccc(-n2ncc3c(NCCN4CCCCC4)ncnc32)cc1	-7%	2%
CCOC(=O)c1sc(=S)n(Cc2ccccc2)c1N	-13%	9%
COc1ccc(C(=O)Nc2ccc(-c3nnn(CC(=O)N4CCN(C(=O)c5ccco5)CC4)n3)cc2)cc1	10%	-4%
O=C(NC(=S)NCc1ccc(F)cc1)c1ccccc1	?	5%
O=C(Nc1ccccc1)Nc1ccc(C(F)(F)F)cn1	?	4%
CCn1cnc2sc(C(=O)Nc3ccccc3OC)c(C)c2c1=O	-12%	1%
